PV pol inh: poliovirus RNA polymerase inhibition; P03300; poliovirus polymerase elongation, fluorescence polarization; hits give low values; % elongation, % (compound at 16.7 µg/mL); 0.66% of 150,000 active; AID 588519; in the data active = % elongation below about 90%; note: some results filed as inactive read as strong as hits
Mtb MenB inh: Mtb MenB enzyme inhibition; P9WNP5; inhibition, %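 (about 12 µg/mL by stock and volumes)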; 0.43% of 100,000 active; MenB enzyme assay, absorbance read-out; some hits fall short of the stated cut;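 active = mean of two replicates above 30%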;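 note: 0% = no compound and 100% = wells with inactive enzyme; the first replicate is given; strong numbers were not always called active; inactives centre near -10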
Target sequence (P9WNP5 whole entry, looked up): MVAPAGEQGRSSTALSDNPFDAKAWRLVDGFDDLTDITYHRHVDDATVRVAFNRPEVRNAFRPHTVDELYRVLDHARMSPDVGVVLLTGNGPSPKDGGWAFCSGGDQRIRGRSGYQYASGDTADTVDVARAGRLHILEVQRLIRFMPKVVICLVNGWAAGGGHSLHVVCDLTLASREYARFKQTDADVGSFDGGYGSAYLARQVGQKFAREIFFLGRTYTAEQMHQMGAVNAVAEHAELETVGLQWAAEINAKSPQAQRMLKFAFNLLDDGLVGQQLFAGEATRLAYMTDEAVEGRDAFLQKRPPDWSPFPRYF
MbtI inh: inhibitors of Mycobacterium tuberculosis siderophore enzyme MbtI; P9WFX0; purified MbtI enzyme, fluorescence intensity read-out; inhibition, %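 (about 17 µg/mL by stock and volumes)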; 0.89% of 100,000 active;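 active = above 50% in both replicates, above 80% if mildly self-fluorescent; inactive = the rest, strongly fluorescent compounds included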;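 note: 0% = mean of negative and 100% = mean of positive controls; one replicate is shown; some compounds called inactive have numbers as strong as hits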
Target sequence (P9WFX0 whole entry, looked up): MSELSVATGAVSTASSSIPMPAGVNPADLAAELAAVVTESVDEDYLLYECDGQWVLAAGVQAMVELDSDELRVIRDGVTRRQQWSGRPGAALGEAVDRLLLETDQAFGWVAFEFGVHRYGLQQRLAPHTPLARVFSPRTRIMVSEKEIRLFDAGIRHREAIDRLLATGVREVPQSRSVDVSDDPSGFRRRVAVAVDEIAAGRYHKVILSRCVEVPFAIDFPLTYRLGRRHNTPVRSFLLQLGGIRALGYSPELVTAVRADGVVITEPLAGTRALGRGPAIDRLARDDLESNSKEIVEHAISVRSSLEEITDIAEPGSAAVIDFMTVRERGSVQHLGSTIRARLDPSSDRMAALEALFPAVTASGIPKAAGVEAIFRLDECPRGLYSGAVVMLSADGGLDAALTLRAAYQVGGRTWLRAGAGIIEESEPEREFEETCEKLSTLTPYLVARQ
PV pol inh intensity: recorded beside PV pol inh, whose call it bears; % elongation; measured here: total intensity read-out; formula for this scale not given here;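 total fluorescence in place of polarization; lower means less elongation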
The depositor's hits bear a star; . = no result given; & = joins results of further samples. Outcome played no part in choosing rows; overall some 1.7% were active at least once.

Order of values – PV pol inh, PV pol inh intensity, Mtb MenB inh, MbtI inh
CC(C)CSc1nnc2n(-c3ccccc3)c(=O)c3ccccc3n12
 : 103, 101, 3, 30
COc1ccc(C(=O)CCC(=O)N2CCN(c3ccccc3)CC2)cc1
 : 100, 104, -36, -15
COc1ccc(-c2nc3ccccc3c(C(N)=O)c2C)cc1
 : 99, 104, 3, -58
O=C1C(Cc2ccccc2)NC(=S)N1CC1CCCO1 (configuration not stated)
 : 103, 112, 5, 17
Nc1nccc(-c2ccc(NC(=O)Nc3ccccc3)cc2)n1
 : 102, 101, -23, -238
COC(=O)c1sccc1OCc1nnc(-c2ccc(OC)cc2)o1
 : 102, 95, -6, -8
COc1ccc(-n2nnnc2SCc2cc(=O)oc3cc(O)ccc23)cc1
 : 100, 97, -28, 0
O=C(Oc1ccc(Cl)cc1)c1csc(C2COc3ccccc3O2)n1 (configuration not stated)
 : 108, 115, 1, -8
O=C(COc1ccc(/C=N/NC(=O)CSc2ncccn2)cc1)NCC1CCCO1 (configuration not stated)
 : 103, 102, -13, 25
O=S(=O)(c1ccccc1)c1nc(-c2ccccc2Cl)oc1Nc1ccc(N2CCOCC2)cc1
 : 102, 107, -11, -2
Cc1ccc(/C=C/C2=CC(=C(C#N)C#N)CC(C)(C)C2)o1
 : 151, 176, -36, 15
Cc1ccc(N(O)S(=O)(=O)c2ccc(C)cc2)cc1
 : 107, 106, 18, 65*
CSc1ccccc1N1C(=O)C2CC=CCC2C1=O (configuration not stated)
 : 100, 108, -3, -10
Cc1ccc(Cn2c(=O)c3ccccc3n3c(SCc4cc(=O)n5ccsc5n4)nnc23)cc1
 : 98, 101, -37, 10
CCN(CC)S(=O)(=O)c1cccc(C(=O)OCC(=O)c2ccc3c(c2)OCO3)c1
 : 105, 109, -10, -6
Fc1cccc2c1N[C@@H](c1ccccn1)[C@H]1CC=C[C@@H]21
 : 103, 105, -2, 4
CCCCc1c(C)c(C#N)c2nc3ccccc3n2c1NCCN1CCOCC1
 : 104, 108, -25, -16
CC1=C(C(=O)Nc2ccc(Cl)cc2C(=O)N2CCCCCC2)SCCO1
 : 103, 103, 3, 2
N#Cc1c(NC(=O)/C=C/C(=O)O)sc2c1CCC2
 : 100, 99, -15, 11
O=C(CN1C(=O)c2ccccc2S1(=O)=O)NC12CC3CC(CC(C3)C1)C2
 : 99, 102, 17, -5
COC(C)(C)CCCC(C)C/C=C/C(C)=C/C(=O)O (configuration not stated)
 : 102&100, 106&104, 12, -14
Cc1ccc(C)c(NC(=S)N2CCC(c3nc4ccccc4o3)CC2)c1
 : 104, 101, -65, -1
NC1=NC2C(N=C(Br)N2C2O[C@H]3COP(=O)(O)O[C@@H]3[C@@H]2O)C(=O)N1 (some centres not stated)
 : 105&103, 103&102, -8, -17
Cc1ccc(Nc2nc(N3CC(C)OC(C)C3)nc3c2cnn3C)cc1Cl (configuration not stated)
 : 101, 106, -3, 106
O=C(CO)Nc1ccccc1Sc1ccccc1
 : 100, 104, -52, 1
CCOc1ccc(Nc2cc(C(=O)NCc3ccco3)c3ccccc3n2)cc1
 : 100, 97, 14, 3
CCOC(=O)C1CCCN(CCP(=O)(c2ccccc2)c2ccccc2)C1 (configuration not stated)
 : 105, 101, -9, -2
COc1cc(CC(=O)Oc2ccc(-c3nnco3)cc2)cc(OC)c1OC
 : 97, 98, -22, -2
CCN1C(=O)c2cccc3c(NC(=O)c4ccc(S(=O)(=O)N5CCCCC5C)cc4)ccc1c23 (configuration not stated)
 : 98, 104, -46, -4
CC1CC(C)CN(C(=O)CSc2nc3cc4c(cc3c(=O)n2CCC2=CCCCC2)OCO4)C1 (configuration not stated)
 : 99, 101, 6, -15

Full records as entered above:
Nc1nccc(-c2ccc(NC(=O)Nc3ccccc3)cc2)n1 is listed as PV pol inh = 102; PV pol inh intensity = 101; Mtb MenB inh = -23; MbtI inh = -238
Cc1ccc(C)c(NC(=S)N2CCC(c3nc4ccccc4o3)CC2)c1 is listed as PV pol inh = 104; PV pol inh intensity = 101; Mtb MenB inh = -65; MbtI inh = -1

Going on with the list.
Order of values – PV pol inh, PV pol inh intensity, Mtb MenB inh, MbtI inh
CC(Nc1nc(N2CCOCC2)nc2ccccc12)c1ccccc1 (configuration not stated)
 : 99, 107, -4, .
Cc1ccc(-c2nn(C)c(=O)c3ccccc23)cc1S(=O)(=O)N1CCOCC1
 : 100, 101, -4, -3
Cc1nn(C2CCS(=O)(=O)C2)c(Cl)c1CNCC1CN(CC(C)C)CCO1 (configuration not stated)
 : 99, 105, 7, 6
Cc1cccc(C(=O)Oc2ccc(C#N)cc2)c1
 : 98, 102, 1, -4
O=C(O)c1ccccc1-c1ncc(-c2ccccc2)o1
 : 101, 100, 25, -196
CCc1ccc(/C=C(\C#N)S(=O)(=O)c2ccccc2)s1
 : 101, 100, -41, -1
CC1CN(CC2COC(C)(C)O2)CC(C)O1 (configuration not stated)
 : 105, 105, -16, .
CC(C)(C)NC(=O)c1cccc(NC(=O)CCC(=O)O)c1
 : 102, 106, -24, -15
CC1CN(C(=O)C(C)N2CCc3ccccc32)CC(C)O1 (configuration not stated)
 : 107, 99, 3, 2
O=C(O)Cn1nnnc1SCC(=O)Nc1ccccc1F
 : 103, 96, -15, -1
Cc1ccc(N(C(=O)c2ccccc2)C2CS(=O)(=O)CC2OC(=O)c2ccccc2)cc1 (configuration not stated)
 : 102, 103, 4, 1
COC(=O)C1Cc2ccccc2CN1C(=O)CSc1nnc(-c2cc3c(s2)CCC(C)C3)o1 (configuration not stated)
 : 101, 105, -20, -3
COC(CNC(=O)c1ccc(CS(=O)(=O)Cc2ccccc2F)o1)OC
 : 100, 103, -5, -2
Cc1ccc(C)c(NC(=O)c2ccccc2)c1
 : 103, 96, ., -1
Cc1onc(-c2ccccc2)c1C(=O)OCC(=O)Nc1ccccc1
 : 104, 111, 0, -9
CCN1CCCC1CNS(=O)(=O)c1cc(C(=O)OC)n(C)c1 (configuration not stated)
 : 99, 103, -30, 7
COc1ccc(CC2C(=O)NC(=S)NC2=O)cc1
 : 95, 103, -5, 36
CCNCC(=O)NCc1ccc(Cl)cc1
 : 98, 102, -4, 9
COc1ccc2cc(CN(CC(N)=O)C(C)C)c(Cl)nc2c1
 : 110, 110, 6, 14
Cc1ccc(C(=O)OCC(=O)N2CC3(C)CC2CC(C)(C)C3)cc1NC(=O)c1ccco1 (configuration not stated)
 : 103, 101, -17, -2
O=C(O)c1cccc(NC(=O)c2cc3ccccc3o2)c1
 : 97, 94, -12, .
O=C(NNc1ccccc1)Nc1ccc2snnc2c1
 : 100, 103, -2, 13
CCCc1cc(-n2nnc3ccccc32)n2c(nc3ccccc32)c1C#N
 : 98, 107, 6, 8
Cc1cc(C)cc(NC(=O)C(C)Sc2ccccc2)c1 (configuration not stated)
 : 111, 109, -9, .
O=C1C(=Cc2ccccc2)C(=O)c2ccccc21
 : 93, 84, -96, 95*
Cc1cccc(-n2c(CC#N)n[nH]c2=S)c1
 : 99, 96, 7, 14
C(=N\C(/N=C/c1cccs1)c1cccs1)/c1cccs1
 : 106, 102, -51, -28
COc1ccccc1N1CCN(C(=O)CN(c2ccccc2OC)S(C)(=O)=O)CC1
 : 100, 96, -1, -1
CC(C)(C)NS(=O)(=O)c1ccc2nc(-c3ccccc3)[nH]c2c1
 : 100, 96, -17, 102
CC1=CC(=O)C(CCCC2=CC(=O)C=CC2=O)=CC1=O
 : 102, 105, 0, 100*
CC(C)(C)Nc1nc2c(s1)CCCC2
 : 101, 106, 9, 78*
c1cc(CN2CCNCC2)ccn1
 : 100, 101, 6, -8
CCN(CC(=O)NC1CCS(=O)(=O)C1)Cn1nc2c(Cl)cc(Cl)cn2c1=S (configuration not stated)
 : 107, 105, -21, 43
COC(=O)C1=C(C)NC2=C(C(=O)CCC2)C1c1ccccc1 (configuration not stated)
 : 102, 96, -27, 3
C/C(=N\NC(=O)Cc1ccccc1)C(c1ccccc1)N1CCOCC1 (configuration not stated)
 : 104, 109, -29, -2
N#C/C(=C(\O)Cc1ccccc1)c1nc2ccccc2[nH]1
 : 99, 101, -12, -3
COc1cc(C(=O)NCCC(=O)NC2CCC(C)CC2)cc(OC)c1OC (configuration not stated)
 : 102, 106, -10, -6
Cc1ccc(C(=O)c2coc3ccc(O)c(Cl)c23)cc1
 : 99, 103, 7, 17
CCC(C)NC(=O)c1ccc2c(c1)CCN2S(=O)(=O)c1ccccc1 (configuration not stated)
 : 101, 105, 3, -5
CCOc1cc(C(=O)N(CC(F)(F)F)C(C)C2CC2)ccc1OC (configuration not stated)
 : 102, 100, -18, -6
CCCC(C)C(=O)Nc1ccc(NC(C)=O)cc1 (configuration not stated)
 : 107, 97, -14, .
CC(=O)Nc1ccc(C(=S)N2CCN(c3ccccc3O)CC2)cc1
 : 105, 102, -10, -23
O=C(NCc1ccc(Cl)cc1)c1ccc(CSc2nc3ccncc3[nH]2)cc1
 : 104, 102, -5, -3
Cc1cc(C(=O)C(C)Sc2nnc(-c3ccc4c(c3)OCO4)o2)c(C)n1-c1ccc(OC(F)F)cc1 (configuration not stated)
 : 100, 108, 16, -1
CC(C)c1ccc(NC(=O)COc2ccccn2)cc1
 : 105, 106, ., 10
CC(C)NCC1CCc2cc(CO)c([N+](=O)[O-])cc2N1 (configuration not stated)
 : 101, 101, 1, -6
CCC(=O)Nc1ccc(N2CCCCS2(=O)=O)cc1
 : 106, 106, -13, -11
O=c1[nH]nc(SCc2nnc(-c3cccc(Cl)c3)o2)n1C1CCCCC1
 : 103, 107, -10, -8
CCCC(C)NC(=O)c1ccccc1 (configuration not stated)
 : 106, 108, -2, -4
C/C(=C\C(=O)c1ccccc1)Nc1ccc2c(c1)OCO2
 : 102, 103, -84, 3
CC(=O)Oc1ccc(OC(C)=O)c2cc3c(OC(C)=O)ccc(OC(C)=O)c3cc12
 : 103, 101, 0, 25
CCN=C1SC(CC(=O)Nc2sc3c(c2C(=O)OCC)CCCC3)C(=O)N1CC (configuration not stated)
 : 102, 110, -20, -2
O=C(Nc1csc(-c2cccs2)n1)Nc1ccc(F)cc1F
 : 101, 122, -14, -182
Cc1nc2c(cnn2C(C)C)c(C)c1CCC(=O)OC(C)C(=O)Nc1ccc(C(N)=O)cc1 (configuration not stated)
 : 99, 107, -1, -2
CC1CCCCN1C(=O)c1cccc(C(=O)N2CCCCC2C)c1 (configuration not stated)
 : 104, 102, 14, -5
Cn1c(SCC(=O)NN)nc2ccccc21
 : 108, 110, -11, 1
N#C/C(=C(/O)CSc1n[nH]c(=O)[nH]c1=O)c1nc2ccccc2[nH]1
 : 105, 110, 1, 77*
Cc1ccccc1NC(=O)C(N)=S
 : 96, 90, -38, 51
CC(=O)N(/C=C1\Sc2ccccc2C1=O)N1CCCCC1
 : 104, 110, -21, 19
CSCCN1C(=O)NC2(CCC(C)CC2)C1=O (configuration not stated)
 : 102, 104, 14, 2

Given with each value named: part of the list above.
Cc1nc2c(cnn2C(C)C)c(C)c1CCC(=O)OC(C)C(=O)Nc1ccc(C(N)=O)cc1 (configuration not stated)
  PV pol inh = 99	PV pol inh intensity = 107	Mtb MenB inh = -1	MbtI inh = -2
CC1CCCCN1C(=O)c1cccc(C(=O)N2CCCCC2C)c1 (configuration not stated)
  PV pol inh = 104	PV pol inh intensity = 102	Mtb MenB inh = 14	MbtI inh = -5

Following part:
Order of values – PV pol inh, PV pol inh intensity, Mtb MenB inh, MbtI inh
CCOC(=O)c1cc(-c2csc(Nc3ccccc3Cl)n2)on1
 : 108, 110, -18, -1
C/C(=N/NC(=O)c1sc(NS(=O)(=O)c2ccc(C)cc2)nc1C)c1sc(N)nc1C
 : 103, 102, -13, 20
CC(=O)OC1CCC2C3CCc4cc(O)ccc4C3CCC12C (configuration not stated)
 : 103, 99, 1, -5
CC1CCc2cc(F)ccc2N1C(=O)CN1C(=O)c2ccccc2C1=O (configuration not stated)
 : 101, 105, -13, -11
Cc1cc(C)c2c(=O)n(-c3ccccc3)[nH]c2n1
 : 101, 95, -49, 52*
O=C(Nc1ccccc1C(=O)NCCN1CCOCC1)C1=CSCCO1
 : 103, 101, -29, -9
CNc1c(NC(=O)CC(=O)OC)c(=O)oc2ccccc12
 : 102, 103, 8, 7
N#Cc1cc2c(=O)n3ccccc3nc2n(C2CCCC2)c1=N
 : 102, 122, -37, -16
Cc1ccc(O)c(C(=O)c2cnc3[nH][nH]c(=O)c3c2)c1
 : 97, 91, -132, -14
COc1cc(-c2noc(CCCC(=O)Nc3ccccc3C(F)(F)F)n2)cc(OC)c1OC
 : 102, 103, 12, -3
COCCN(Cc1ccccc1)C(=O)C1CC(=O)N(c2cc(C)ccc2OC)C1 (configuration not stated)
 : 104, 108, -14, -8
O=C(Nc1nnc(-c2ccccc2)o1)c1ccccc1
 : 107, 105, -25, 24
O=c1c2ccccc2[nH]c(=S)n1-c1cc(C(F)(F)F)cc(C(F)(F)F)c1
 : 105, 110, 6, -9
Cc1cc(C)c(C#N)c(SCC(=O)c2ccccc2)n1
 : 102, 100, 2, .
COC(=O)c1cc2c(=O)n3ccccc3nc2n(CCCO)c1=N
 : 103, 105, -138, 116
CCn1c(O)c(C=Nc2cccc(OC)c2)c(=O)[nH]c1=S
 : 100, 101, -41, -5
Cc1cnc(C(=O)NCC23CC4CC(CC(C4)C2)C3)cn1
 : 111, 122, -12, 2
CC1(C)CC(=O)C2=C(C1)OC(c1cccs1)C(C#N)=C2N (configuration not stated)
 : 102, 103, -7, 4
O=C(/C=C1/Sc2ccccc2N(Cc2ccccc2F)C1=O)N1CCCC1
 : 99, 102, -30, 7
Cc1cn2c(=O)c(C(=O)NCC3CCCC(CNC(=O)c4cnc5sc(C)cn5c4=O)C3)cnc2s1 (configuration not stated)
 : 101, 106, -27, -19
